Assay outcomes as filed in PubChem BioAssay.
miR-21 reporter = miR-21 reporter, rising signal; HeLa miR-21 FLuc reporter, luciferase, 48 h; Potency, µM (doses to about 38.3 µM), for inactives: at the top dose reporter change, positive = more light; 340,000 tested, under 10 active; AID 2288; active = well fitted rising curve with a large enough effect; inconclusive = small, poorly fitted or top-dose-only effect; inactive = no such curve, though single readings can be large or run the other way;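 further: % of control where 0% means no effect; miR-21 action dims this reporter so a rising signal means less miR-21 action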
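HeLa cells endogenously expressing miR-21, stably carrying CMV-driven firefly luciferase with a downstream miR-21 binding site, 2000 cells/well. Titrations up to approximately 40 uM, 48 hours; luciferase luminescence read.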
GLA inh pH 4.5 = alpha-galactosidase A (human) inhibition, pH 4.5 | P06280 | purified enzyme, 4-MU-alpha-Gal fluorescence, pH 4.5 | activity change, negative = inhibition, % at 105 µM | 230,000 tested, under 10 active | AID 1467; inconclusive = small, poorly fitted or top-dose-only inhibition, or a rising curve; inactive = flat fitted curve, though single readings scatter; no compound was filed as active;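 further: 0% = full activity with enzyme and -100% = basal without enzyme; dose as in the result columns while the protocol names 77 µM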
Rango release inh = prevents RanGTP from dissociating the Rango-importin beta complex. O95149+P62826. Biochemical FRET Rango-importin beta, RanGTP-induced dissociation. Potency, µM (highest dose often 46.1 µM), for the others: at the highest dose activity change, negative = inhibition. 340,000 compounds, 0.071% hits. AID 540253; active means falling FRET ratio curve, often poorly fitted, with flat reads before Ran was added; inconclusive means other falling curves, or compound fluorescence or quenching; inactive means flat or rising ratio curve;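 further: potency means the concentration at half of the fitted maximal effect; % of control where 0% means no effect; nearly all actives have a fitted effect of over 45% in size; -100% = wells without RanGTP and RCC1; the record marks most hits as doubtful in a second field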
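Quantitative HTS using a FRET biosensor: 0.1 uM Rango, 0.25 uM importin beta, 0.6 uM Ran, 2 mM GTP, 0.2 uM RCC1 final, PBS with DTT, Tween-20 and BSA. Post-read taken 45 min after Ran addition.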
Rango-impB inh = inhibitors of Rango-importin beta complex formation. Q14974. Potency, µM (doses to about 92.2 µM), for inactives: top-dose inhibition of complex formation. 340,000 compounds, 0.031% hits. Rango CFP/YFP FRET sensor + importin beta, 45 min. AID 540263; active = rising FRET ratio curve, often small or poorly fitted; inconclusive = mostly compound fluorescence or quenching in the first reads; inactive = flat curves in all reads;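 further: potency means the concentration at half of the fitted maximal effect; 0% = DMSO wells and 100% = buffer wells lacking importin beta; nearly all actives have a fitted effect of over 15% in size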
Target sequence (Q14974 whole entry, looked up): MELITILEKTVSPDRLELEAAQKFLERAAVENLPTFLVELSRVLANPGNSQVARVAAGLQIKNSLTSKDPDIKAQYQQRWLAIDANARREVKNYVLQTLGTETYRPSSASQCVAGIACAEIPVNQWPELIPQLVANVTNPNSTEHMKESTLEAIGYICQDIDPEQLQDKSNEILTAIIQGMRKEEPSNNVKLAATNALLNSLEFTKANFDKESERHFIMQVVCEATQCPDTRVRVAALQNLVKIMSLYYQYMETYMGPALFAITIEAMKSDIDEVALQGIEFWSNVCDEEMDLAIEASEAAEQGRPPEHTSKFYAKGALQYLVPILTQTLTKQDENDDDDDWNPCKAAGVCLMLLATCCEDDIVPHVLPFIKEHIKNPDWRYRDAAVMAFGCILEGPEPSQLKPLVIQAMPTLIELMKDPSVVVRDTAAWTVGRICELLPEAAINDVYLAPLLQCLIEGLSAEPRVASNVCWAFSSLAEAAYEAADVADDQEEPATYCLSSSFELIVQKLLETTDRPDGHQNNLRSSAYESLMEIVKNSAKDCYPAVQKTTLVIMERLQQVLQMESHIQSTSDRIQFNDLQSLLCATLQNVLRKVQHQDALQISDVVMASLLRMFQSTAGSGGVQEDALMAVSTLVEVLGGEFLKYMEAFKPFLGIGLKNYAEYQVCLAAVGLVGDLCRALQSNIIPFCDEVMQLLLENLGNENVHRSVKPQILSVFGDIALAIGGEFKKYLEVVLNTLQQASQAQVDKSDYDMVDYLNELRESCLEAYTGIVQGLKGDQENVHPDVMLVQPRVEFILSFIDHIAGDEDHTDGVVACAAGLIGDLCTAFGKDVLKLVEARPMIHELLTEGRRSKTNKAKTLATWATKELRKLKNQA
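FRET biosensor Rango (snurportin 1 IBB between N-terminal EYFP and C-terminal Cerulean), 50 nM in PBS/1 mM DTT/0.02% Tween-20/0.1% BSA, preincubated 5 min RT with compound; 0.125 microM importin beta added, 45 min RT, CFP/YFP FRET ratio read.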
* hit, by the source's call; ? = inconclusive; nt = not tested or not shown.

Start of the listing, in advance, six compounds:
Values run as follows: miR-21 reporter	GLA inh pH 4.5	Rango release inh	Rango-impB inh
CCOc1ccc(C(=O)n2cc(C(=O)OC)c3ccccc32)cc1OCC
    -5.2%	nt	-16.8%	-5.3%
CC(=O)N1CCN(C(=O)c2ccc3c(c2)OCCO3)CC1
    0.1%	nt	-0.2%	0.2%
O=C(C1=C[C@H](c2coc3ccccc3c2=O)C[C@H](OCc2ccc(CO)cc2)O1)N1CCN(Cc2ccccc2)CC1
    4.0%	0.6	6.5%	-3.3%
O=C(COc1ccc(Cl)cc1)NNC(=O)c1cccnc1
    -3.2%	10.5	5.0%	-2.0%
Clc1nccc(NCc2ccccc2)n1
    nt	nt	10.1%	1.2%
Cc1ccccc1NC(=O)Cn1cnc2c(oc3nc4c(cc32)COC(C)(C)C4)c1=O
    -8.9%	1.2	-3.1%	-0.2%

This part in full, from the start:
Values run as follows: miR-21 reporter	GLA inh pH 4.5	Rango release inh	Rango-impB inh
CCOc1ccc(C(=O)n2cc(C(=O)OC)c3ccccc32)cc1OCC
    -5.2%	nt	-16.8%	-5.3%
CC(=O)N1CCN(C(=O)c2ccc3c(c2)OCCO3)CC1
    0.1%	nt	-0.2%	0.2%
O=C(C1=C[C@H](c2coc3ccccc3c2=O)C[C@H](OCc2ccc(CO)cc2)O1)N1CCN(Cc2ccccc2)CC1
    4.0%	0.6	6.5%	-3.3%
O=C(COc1ccc(Cl)cc1)NNC(=O)c1cccnc1
    -3.2%	10.5	5.0%	-2.0%
Clc1nccc(NCc2ccccc2)n1
    nt	nt	10.1%	1.2%
Cc1ccccc1NC(=O)Cn1cnc2c(oc3nc4c(cc32)COC(C)(C)C4)c1=O
    -8.9%	1.2	-3.1%	-0.2%
Cc1c(C(c2ccc(O)cc2)c2c(C)n(C)n(-c3ccccc3)c2=O)c(=O)n(-c2ccccc2)n1C
    5.5%	-2.4	0.8%	2.0%
CCOc1ccc(NC(=O)CN(C)C(=O)c2ccc(OCc3ccccc3)c(OC)c2)cc1OCC
    nt	nt	4.5%	0.0%
CC(NC(=O)c1ccco1)C1CCCO1 (stereo unspecified)
    -0.2%	8.1	-1.7%	-0.1%
CC(C)COP(=O)(c1ccc(N(C)C)cc1)C(Nc1ccccc1)c1ccccc1 (stereo unspecified)
    -1.1%	-19.7	-1.6%	-0.5%
Cc1cccc(-c2nnc(SCCOc3ccc4c(C)cc(=O)oc4c3)o2)c1
    0.2%	10.9	-14.0%	3.5%
O=S(=O)(c1ccc(F)cc1)N1CCN(c2ncccn2)CC1
    -0.1%	-7.6	9.9%	3.0%
CC(C)c1nc2sc3c(=O)n(N)cnc3c2c2c1COC(C)(C)C2
    -4.6%	4.3	-0.1%	-1.8%
Cc1ccc(C2=NS(=O)(=O)N(C)C(C(=O)NC3CCCC3)=C2)cc1
    5.5%	nt	8.0%	4.5%
Cc1nc(SCC(=O)NC(=O)NCc2ccco2)nc(C)c1C
    0.2%	-1.5	13.9%	1.7%
O=c1[nH]cnc2c1c(-c1ccccc1)cn2-c1ccccc1
    -18.6%	nt	0.2%	-0.7%
COc1cc(/C=N/NC(=O)Cc2c[nH]c3ccccc23)cc(OC)c1OC
    -11.5%	-6.2	1.3%	4.9%
NS(=O)(=O)c1ccc(CCNC(=O)c2cc3ccccc3oc2=O)cc1
    -6.7%	nt	23.6%	3.6%
COC(=O)c1c(NC(=O)C(C)C)sc2c1CCN(Cc1ccccc1)C2
    3.7%	nt	-23.5%	?
O=C(CSc1ccccc1C(=O)O)Nc1cccc(C(=O)O)c1
    -7.4%	15.8	-6.9%	-1.2%
Cc1ccc2nc(-c3ccncc3)[nH]c2c1
    -44.1%	nt	0.0%	-0.2%
CC(=O)c1ccc(NC(=O)CCC(=O)OCC(F)(F)C(F)F)cc1
    -14.8%	-1.0	-3.4%	0.0%
Cc1sc2nc(CSC(C)C(=O)NC3(C#N)CCCCC3)[nH]c(=O)c2c1C (stereo unspecified)
    nt	nt	-0.4%	-0.1%
COc1ccc(CC(=O)Nc2nc(-c3ccc(OC)c(OC)c3)cs2)cc1OC
    30.0%	nt	-15.9%	5.1%
Cc1cccc(-c2n[nH]c(=S)n2Cc2ccccc2)c1
    0.5%	0.4	7.2%	1.7%
COc1ccc(C(=O)OCC(=O)NC(=O)NCc2ccccc2)cc1[N+](=O)[O-]
    nt	nt	7.7%	1.5%
O=C(NCc1cc(C(F)(F)F)cc(C(F)(F)F)c1)C1CC(c2ccccc2F)=NO1 (stereo unspecified)
    nt	nt	6.9%	2.3%
COc1ccc(CCNC(=O)CN(CCc2ccccc2)S(C)(=O)=O)cc1OC
    -4.2%	-0.3	-7.4%	0.6%
CC(=O)N=c1c(C#N)cc2c(=O)n3ccccc3nc2n1CCCOC(C)C
    -1.1%	?	?	?
O=c1[nH]c(-c2cccnc2)nc2sc(-c3ccccc3)cc12
    -2.8%	9.2	4.9%	3.2%

Some values from above.
Cc1ccc2nc(-c3ccncc3)[nH]c2c1 in miR-21 reporter: -44.1%
Cc1sc2nc(CSC(C)C(=O)NC3(C#N)CCCCC3)[nH]c(=O)c2c1C (stereo unspecified) in Rango release inh: -0.4%
COc1ccc(CCNC(=O)CN(CCc2ccccc2)S(C)(=O)=O)cc1OC in Rango-impB inh: 0.6%

The list goes on.
Values run as follows: miR-21 reporter	GLA inh pH 4.5	Rango release inh	Rango-impB inh
Cc1cc(N2CCCC2=O)ccc1S(=O)(=O)NC1CCCCC1
    -6.2%	nt	1.2%	3.5%
COc1ccc(OC)c(CNC(=O)C2CCCN(S(=O)(=O)N3CCC(C)CC3)C2)c1 (stereo unspecified)
    5.9%	nt	-7.2%	0.2%
CCCn1c(=N)c(S(=O)(=O)c2ccc(F)cc2)cc2c(=O)n3cccc(C)c3nc21
    -5.4%	nt	?	?
COc1ccc(-c2noc(CN(C(=O)c3cccs3)C(C)C)n2)cc1
    6.4%	-1.1	9.8%	-2.4%
O=C(c1ccc(Cl)cc1)C1CCCN(Cc2cnn(-c3ccccc3)c2)C1 (stereo unspecified)
    1.6%	-15.3	-7.7%	1.7%
COC(=O)c1c(NC(=O)CSc2nc3ccccc3c(=O)n2-c2ccccc2)sc(C)c1C
    -1.0%	-1.6	9.5%	-0.4%
COc1cc(OC)c(N(C)S(=O)(=O)c2cccc(C(=O)OCC(=O)N(C)Cc3ccccc3)c2)cc1Cl
    nt	nt	2.7%	-2.4%
NC(=O)CSc1nc2c(c(=O)n1-c1ccccc1)C1(CCCCC1)Cc1ccccc1-2
    -4.6%	1.1	8.8%	1.0%
Cc1cc(S(=O)(=O)Nc2ccc(C(=O)N3CC(C)OC(C)C3)cc2)ccc1F (stereo unspecified)
    nt	nt	8.9%	-4.4%
C=CC(c1ccccc1)C(C(=O)c1ccccc1)N(C)C (stereo unspecified)
    -2.2%	-0.5	0.2%	0.3%
COC(=O)Cc1c(C)c2cc(Cl)c(OC(=O)c3ccco3)cc2oc1=O
    -19.7%	?	?	?
CC(C)C(C(=O)NCc1ccco1)N(CC1CCCO1)C(=O)CNS(=O)(=O)c1ccccc1 (stereo unspecified)
    -7.1%	-7.5	-3.8%	-1.8%
CC(O)c1nc2c(c(=O)n(C)c(=O)n2C)n1C (stereo unspecified)
    -6.8%	-2.8	16.8%	-0.5%
COc1ccc(C(=O)Nc2nc3ccccc3[nH]2)cc1
    ?	nt	19.8%	-1.7%
O=c1cc(-c2ccc(F)cc2)[nH][nH]1
    2.6%	8.1	-0.1%	-2.8%

In another format: entries from further up
canonical_smiles,miR-21 reporter,GLA inh pH 4.5,Rango release inh,Rango-impB inh
Cc1cc(S(=O)(=O)Nc2ccc(C(=O)N3CC(C)OC(C)C3)cc2)ccc1F (stereo unspecified),nt,nt,8.9%,-4.4%
COC(=O)Cc1c(C)c2cc(Cl)c(OC(=O)c3ccco3)cc2oc1=O,-19.7%,?,?,?

The listing continues.
Values run as follows: miR-21 reporter	GLA inh pH 4.5	Rango release inh	Rango-impB inh
O=C(Nc1nc(-c2cccs2)cs1)c1ccco1
    -47.1%	5.6	12.0%	-1.9%
CCC(C(=O)OCC(=O)NC1CCS(=O)(=O)C1)c1ccccc1 (stereo unspecified)
    nt	nt	2.8%	1.0%
O=C(CSc1nc2ccccc2[nH]1)c1ccco1
    -58.4%	-2.5	0.7%	-1.3%
CCc1cc(-c2n[nH]c(=S)n2Cc2ccccc2)cs1
    0.8%	-7.6	9.6%	1.8%
O=C(CN1CCCCC1)NC(=O)NC1CCCC1
    -19.8%	-6.0	1.0%	2.8%
CC(=O)Nc1ccc(C(=O)CSc2nnc(Cc3ccccc3)o2)cc1
    -6.1%	4.7	-13.5%	6.8%
Cc1ccc(SCCC(=O)N/N=C/c2cccnc2)cc1
    3.5%	5.2	0.6%	2.2%
COc1ccc(Cl)cc1S(=O)(=O)N1CCC(C(=O)N2CCOCC2)CC1
    0.4%	nt	-8.8%	0.7%
N/C(=N\c1nc2ccccc2o1)NC(=O)c1ccc(Cl)cc1
    -10.3%	2.4	0.9%	-0.1%
COCCC1CCCCN1C(=O)c1cccc(OC2CCN(C3CCCC3)CC2)c1 (stereo unspecified)
    -0.5%	6.7	15.6%	-4.9%
Cc1ccc(N/C(N)=N/c2nc(C(F)(F)F)cc(C(F)(F)F)n2)cc1
    -2.8%	-13.7	-11.5%	4.8%
CCN(CC)CCNC(=O)c1cc2cc3ccc(OC)cc3nc2o1
    -11.1%	nt	0.0%	0.7%
CCCCCOc1ccc(C(=O)OC(C)C(=O)NCc2ccco2)cc1 (stereo unspecified)
    -5.7%	nt	-4.4%	?
Cc1cc(CCC(=O)O)c(C)cc1CCC(=O)O
    0.5%	2.5	9.5%	-0.4%
CCN(CC)c1ccc(Nc2nc(-c3cccnc3)cs2)cc1
    -50.2%	nt	1.3%	2.1%
Cc1ccnc(NS(=O)(=O)c2ccc(NS(=O)(=O)c3cccs3)cc2)n1
    -5.4%	6.7	-11.3%	-4.3%
CN(CC(=O)Nc1ccccc1Cl)C(=O)c1cc2c(s1)CCCCC2
    nt	nt	-11.6%	0.4%
C[C@]12CCC(=O)C=C1C=CC1C2CC[C@@]2(C)C1CC[C@@]21CCC(=O)O1 (stereo partly specified)
    nt	nt	1.9%	0.1%
C[C@@H]1O[C@@H](O[C@H]2[C@H](O)[C@@H](O)[C@H](Oc3c(-c4ccc(O)cc4)oc4cc(O)cc(O)c4c3=O)O[C@@H]2CO)[C@H](O)[C@H](O)[C@H]1O
    nt	nt	18.7%	1.0%
O=C(O)c1ccc(Cl)c(S(=O)(=O)Nc2ccc(S(=O)(=O)N3CCCC3)cc2)c1
    nt	nt	-4.2%	-0.2%
COc1ccc(/C=C\C(=O)c2c(O)ccc3c(C)cc(=O)oc23)cc1
    0.8%	-8.3	-2.9%	-7.2%
Cc1ccccc1Cn1nc(C)c(NC(=O)C2c3ccccc3Oc3ccccc32)c1C
    -8.3%	-1.3	5.4%	-3.1%
CC(C)(C)NC(=O)c1ccc2c(c1)N(CC(=O)N1CCN(c3ccccc3F)CC1)C(=O)C(C)(C)O2
    0.5%	-0.6	-8.6%	1.3%
CCc1ccccc1N(CC(=O)NC1CCCCC1)C(=O)CNC(=O)c1ccco1
    5.8%	nt	0.6%	-0.4%
CCOc1cc(S(=O)(=O)n2nc(C)cc2C)ccc1Br
    5.0%	-8.5	-10.6%	?
COC(=O)c1[nH]c2cccc(OC)c2c1NC(=O)CN1CC2(C)CC1CC(C)(C)C2 (stereo unspecified)
    -4.6%	-4.7	3.8%	-1.6%
CCSC(=O)CCCCCCCCCCCO
    -7.4%	1.8	-17.4%	-7.8%
CC1(C)S[C@@H]2C(C(=O)OCc3ccccc3)NC(=O)N2C1C(=O)OCc1ccccc1 (stereo partly specified)
    nt	nt	-16.9%	-0.3%
NS(=O)(=O)c1cccc(NC(=O)Cn2cnc3ccccc3c2=O)c1
    1.7%	4.8	0.7%	3.7%

These rows are one share of the data. The share of hits here may be higher or lower than overall.
